Assay outcomes as filed in PubChem BioAssay.
GALR2 agonist: GALR2 (human) receptor agonism | GALR2-expressing cells, agonist activation read-out | activation, %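 (tested at 5 µM)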 | actives 0.48% (n = 140,000) | AID 803;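 active = above mean plus 3 SD of all compounds, about 5% in these data, not always enough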;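 note: 0% = vehicle buffer wells and 100% = reference agonist at full effect; tested in CHO reporter cells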
PKD1 kinase inh: PKD1 (human) kinase inhibition | Q15139 | PKD1 kinase fluorescence polarization assay | inhibition, %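 (about 10 µM by stock and volumes)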 | actives 0.056% (n = 200,000) | AID 797;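 active = inhibition of 50% or more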;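 note: controls were vehicle for no effect and a reference inhibitor for full effect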
Target sequence (Q15139 whole entry, looked up): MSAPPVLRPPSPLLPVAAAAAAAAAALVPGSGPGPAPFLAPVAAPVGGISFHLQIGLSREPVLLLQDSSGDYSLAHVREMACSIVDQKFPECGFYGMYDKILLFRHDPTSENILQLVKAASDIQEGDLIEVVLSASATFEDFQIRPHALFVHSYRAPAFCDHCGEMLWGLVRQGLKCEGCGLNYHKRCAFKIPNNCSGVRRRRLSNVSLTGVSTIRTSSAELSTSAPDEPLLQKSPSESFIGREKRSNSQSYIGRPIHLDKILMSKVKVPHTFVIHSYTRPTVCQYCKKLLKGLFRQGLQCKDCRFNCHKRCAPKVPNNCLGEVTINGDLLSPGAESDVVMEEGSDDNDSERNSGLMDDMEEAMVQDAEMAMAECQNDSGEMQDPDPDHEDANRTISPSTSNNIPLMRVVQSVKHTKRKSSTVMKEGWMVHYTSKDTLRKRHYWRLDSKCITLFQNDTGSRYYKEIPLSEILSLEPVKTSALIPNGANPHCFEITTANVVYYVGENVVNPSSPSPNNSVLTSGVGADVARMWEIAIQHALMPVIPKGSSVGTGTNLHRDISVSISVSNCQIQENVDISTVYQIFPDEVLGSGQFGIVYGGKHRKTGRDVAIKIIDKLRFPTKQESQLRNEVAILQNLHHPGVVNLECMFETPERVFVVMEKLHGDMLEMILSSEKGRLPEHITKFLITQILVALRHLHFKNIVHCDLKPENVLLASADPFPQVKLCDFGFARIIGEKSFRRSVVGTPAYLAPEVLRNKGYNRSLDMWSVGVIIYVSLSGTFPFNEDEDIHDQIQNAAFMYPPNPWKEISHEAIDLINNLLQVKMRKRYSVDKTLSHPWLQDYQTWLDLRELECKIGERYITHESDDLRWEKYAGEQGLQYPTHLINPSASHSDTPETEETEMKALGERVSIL
Insulin prom inh: TRM-6 insulin promoter activity inhibition | TRM-6 cells (human fetal islet line), insulin promoter-eGFP reporter, imaging; reporter expression induced with tamoxifen | inhibition, % at 2 µM | actives 0.9% (n = 130,000) | AID 1273;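 active = inhibition above the mean plus 3 SD, with well images judged a real hit on visual review, cut at about 60% in these data, passing the limit was not always enough; inconclusive = inhibition over the cutoff but images rejected on review; inactive = inhibition not above the cutoff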
RGS16-Gao: modulates binding between human RGS16 and Galphao. binding response (% of control), % at 10 µM. AID 1441. bead-based flow cytometry RGS16-Galphao binding, fluorescence; actives lie on both sides. actives 0.38% (n = 220,000). O15492+P09471;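 active = below 25% or above 175%, edge rows of some plates excepted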;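 note: Galphao activated by GDP with aluminum fluoride before binding; 100% = wells without compound and 0% = beads without RGS; some results beyond the cut were filed as inactive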
HSV replic up: increases HSV replication in cells. HSV replication augmentation in cells, fold increase. actives 0.005% (n = 220,000). maximum fold increase;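 active = peak rise of 1.5-fold or more in the series; inconclusive = self-fluorescent or not available for retest; tested in PC3 cells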;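 note: first round at 10 µM; read as green reporter fluorescence; hits show the peak of a series up to 25 µM; 1 = signal of infected wells without compound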
Insulin prom inh cell count: also measured in Insulin prom inh; calls as there; normalized cell count, %; measured here: cell count, toxicity; reference of the scale not given here;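 cells exposed to compound for 48 h; stained nuclei by imaging scaled within each plate; lower means fewer cells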
HSV replic up primary fold: recorded beside HSV replic up, whose call it bears; fold increase; compound at 10 µM; measured here: primary screen fold increase 10 uM; tested in PC3 cells;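 GFP signal in the first replicate; 1 = infected wells without compound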
* hit, by the source's call; i = inactive; ? = inconclusive; . = not tested or not shown; [ ] = another dose, or the depositor's remark. No enrichment for hits. About 1.3% of those tested had a hit in this group.

Compound | HSV replic up primary fold | RGS16-Gao | GALR2 agonist | HSV replic up | Insulin prom inh cell count | PKD1 kinase inh | Insulin prom inh
Cc1ccc(C(=O)Nc2nnc(-c3ccc(C(C)(C)C)cc3)s2)cc1 | 1 | 100 | -1.5 | i | 100 | 2 | 20
c1ccc(-n2cc(CN3CCC(N4CCOCC4)CC3)c(-c3ccc4c(c3)OCO4)n2)cc1 | 0.98 | 99 | . | i | . | 0 | .
CCOC(=O)c1cccc(NC(=O)Cn2cnc3c2c(=O)n(C)c(=O)n3C)c1 | 0.81 | 112 | -1.2 | i | 175 | -3 | -45
O=C(CSc1nnc(COc2ccccc2)n1Cc1ccco1)NCc1ccco1 | 0.94 | 92 | -1.7 | i | . | 0 | .
COc1ccc(/C(N)=N/OC(=O)c2cc(-c3ccccc3)nc3ccccc23)cc1 | 0.99 | 93 | -1.1 | i | 159 | -4 | 27
Cc1ccc(NC2=C(C(=O)c3ccccc3)N(C)S(=O)(=O)c3ccccc32)cc1 | . | 103 | -1.9 | ? | 92 | 15 | 3
CC(C)c1cc(O)c(-c2ccccc2)c(=O)n1-c1ccc(Cl)cc1 | 1.1 | 104 | . | i | . | . | .
COc1ccc(-c2ncn(CCC#N)c2[N+](=O)[O-])cc1 | 0.99 | 97 | . | i | 41 | -5 | 64
Cc1cc(N)n(-c2ccc([N+](=O)[O-])cc2)n1 | 0.96 | 99 | . | i | . | -4 | .
COc1ccc(-c2nnc(SC(C(=O)c3c[nH]c4ccccc34)c3ccccc3)n2N)cc1OC (centres undefined) | 0.73 | 103 | -0.5 | i | 129 | -6 | 0
O=C(N/N=C/c1ccc(F)c(F)c1)c1cc2c(s1)-c1ccccc1CC2 | 0.91 | 95 | -1.4 | i | 80 | -12 | -7
CCn1nc(C)cc1C(=O)n1nc(C)c(Sc2ncccn2)c1C | 0.91 | 99 | . | i | . | . | .
Cc1cccc(OCCSc2ncnc3nc[nH]c23)c1 | 0.94 | 90 | -2.0 | i | 91 | -3 | 14
CCCNCCC(c1ccco1)c1ccccc1OC (centres undefined) | 1.1 | 103 | -0.2 | i | 70 | -8 | 39
CC(C)CNC(=O)c1ccccc1NC(=O)CCSc1ccccc1 | 0.95 | 100 | -3.0 | i | 66 | -10 | -15
COC(=O)C1=C(N)Oc2cc(C)[nH]c(=O)c2C1c1ccccc1OC (centres undefined) | 0.95 | 98 | . | i | . | . | .
CCN1CCN(CCOc2ccccc2-c2ccccc2)CC1 | 0.9 | 99 | . | i | . | -1 | .
Cc1cc(C(F)(F)F)nc(SCCN2CCOCC2)c1C#N | 1 | 98 | . | i | . | 0 | .
CC1CC(C)CN(c2ncc3c(n2)CC(c2ccc(Cl)cc2)CC3=O)C1 (centres undefined) | 1.1 | 217 | -1.1 | i | . | -3 | .
Cc1cc(C)cc(NC(=O)C2CCN(c3cnccn3)CC2)c1 | 1 | 100 | . | i | . | -7 | .
CC(=O)N(C)c1ccc(NC(=O)c2ccccc2C(=O)O)cc1 | 0.72 | 101 | -3.2 | i | 124 | -5 | 62
CCn1c(=O)c([N+](=O)[O-])c(NCCc2ccc(OC)c(OC)c2)c2ccccc21 | 0.78 | 105 | 0.0 | i | 102 | -3 | 0
CCNC(=S)NNC(=O)c1cc(C)nc2ccccc12 | 1 | 100 | -2.2 | i | 126 | -1 | -25
CC1CC(C)CN(CCCNC(=O)Cn2ncn3cccc3c2=O)C1 (centres undefined) | 0.75 | 100 | 0.3 | i | 143 | 7 | 6
Cc1nn(Cc2cccc(C(=O)NC34CC5CC(CC(C5)C3)C4)c2)c(C)c1Br | 1.1 | 88 | -0.8 | i | 53 | 7 | 31
Cc1nc(N2CCN(S(=O)(=O)c3ccccc3)CC2)c2c3c(sc2n1)CC(C)CC3 (centres undefined) | 0.96 | 92 | -0.3 | i | 120 | -9 | 0
Cn1c(=O)c2c(nc(Sc3ncccn3)n2Cc2ccc(Cl)cc2)n(C)c1=O | 0.86 | 101 | -1.7 | i | . | -9 | .
O=C(CO/N=C\c1ccccc1)Nc1ccccc1C(=O)N1CCOCC1 | 0.89 | 99 | 0.0 | i | . | 5 | .
CC[n+]1c(/C=C/C=C/N(C(C)=O)c2ccccc2)sc2cc(OC)ccc21 | . | 143 | -1.3 | . | 103 | -23 | -270
COc1ccc(NC(=S)N2CCN(C(c3ccccc3)c3ccccc3)CC2)cc1OC | 0.96 | 185*[activator] | 0.5 | i | . | -13 | .
Cc1cccc(NC2=NC(=S)N(c3cccc(C(=O)O)c3)C23CCCCC3)c1 | 1 | 100 | . | i | 125 | 4 | 12
Cc1ccc(NC2=C(N3CCOCC3)C(=O)c3ccccc3C2=O)cc1 | 0.91 | 102 | -2.0 | i | 29 | -2 | -6
CN1CCN(NC(=O)c2ccc(Cl)s2)CC1 | 1 | 104 | . | i | . | 7 | .
Cc1ccc(-n2c(SCC(=O)Nc3ccc(C(=O)O)cc3)nnc2-c2ccncc2)cc1 | 0.9 | 104 | . | i | . | . | .
O=C(COc1cccc(Cl)c1)Nc1ccc2c(c1)CCC2 | 1.1 | 98 | -1.4 | i | 118 | -6 | -15
COC(=O)c1ccccc1NC(NC(=O)c1ccco1)C(=O)c1ccccc1 (centres undefined) | 0.97 | 94 | -0.9 | i | . | 7 | .
O=C(Nc1ccc2c(c1)OCO2)c1ccc(Br)s1 | 1.1 | 89 | 0.7 | i | 93 | -4 | 71
COc1ccc(C2(NC(C)=O)CCN(C(=O)CCC(=O)O)CC2)cc1 | 1 | 106 | -0.7 | i | 104 | -3 | 22
COc1ccc(N(C(C)=O)S(=O)(=O)c2cc(OC)ccc2OC)cc1 | 0.94 | 100 | -0.8 | i | 118 | 1 | 6
O=C(O)c1ccc(N=C2SCC(=O)N2Cc2ccccc2)cc1 | 1 | 108 | . | i | . | -5 | .
CC1CCCC(NC(=O)COC(=O)CSc2ccc3ccccc3c2)C1C (centres undefined) | 0.95 | 96 | -1.6 | i | 75 | -3 | -38
O=C1C2CC=CCC2C(=O)N1CNc1ccccc1 (centres undefined) | 0.85 | 64 | -1.0 | i | 119 | 4 | 60
CN(Cc1nc(-c2cccs2)no1)CC1(N2CCOCC2)CCCCC1 | 1 | 104 | . | i | . | -13 | .
O=C(CCc1nc2ccccc2c(=O)[nH]1)OCc1ccc(-c2ccccc2)cc1 | 1.1 | 117 | -2.0 | i | 98 | 2 | 19
CCN(CC)CCN1C(=O)C(=O)/C(=C(/O)c2ccc(OC)cc2)C1c1ccco1 (centres undefined) | . | 139 | -1.1 | . | . | -8 | .

Shown with values under each structure: part of the list above
Results follow in this order: HSV replic up primary fold	RGS16-Gao	GALR2 agonist	HSV replic up	Insulin prom inh cell count	PKD1 kinase inh	Insulin prom inh
Cc1ccc(NC2=C(N3CCOCC3)C(=O)c3ccccc3C2=O)cc1
  0.91	102	-2.0	i	29	-2	-6
CN1CCN(NC(=O)c2ccc(Cl)s2)CC1
  1	104	.	i	.	7	.
Cc1ccc(-n2c(SCC(=O)Nc3ccc(C(=O)O)cc3)nnc2-c2ccncc2)cc1
  0.9	104	.	i	.	.	.
O=C(COc1cccc(Cl)c1)Nc1ccc2c(c1)CCC2
  1.1	98	-1.4	i	118	-6	-15
COC(=O)c1ccccc1NC(NC(=O)c1ccco1)C(=O)c1ccccc1 (centres undefined)
  0.97	94	-0.9	i	.	7	.
O=C(Nc1ccc2c(c1)OCO2)c1ccc(Br)s1
  1.1	89	0.7	i	93	-4	71
COc1ccc(C2(NC(C)=O)CCN(C(=O)CCC(=O)O)CC2)cc1
  1	106	-0.7	i	104	-3	22
COc1ccc(N(C(C)=O)S(=O)(=O)c2cc(OC)ccc2OC)cc1
  0.94	100	-0.8	i	118	1	6
O=C(O)c1ccc(N=C2SCC(=O)N2Cc2ccccc2)cc1
  1	108	.	i	.	-5	.
CC1CCCC(NC(=O)COC(=O)CSc2ccc3ccccc3c2)C1C (centres undefined)
  0.95	96	-1.6	i	75	-3	-38

Remaining list, next part.
Compound | HSV replic up primary fold | RGS16-Gao | GALR2 agonist | HSV replic up | Insulin prom inh cell count | PKD1 kinase inh | Insulin prom inh
O=C(O)CC1=C(O)C(=O)N(c2ccccc2)C1c1ccccc1 (centres undefined) | 1 | 142 | -1.4 | i | . | -10 | .
COC(=O)CC1=C(C)C(=O)CC2C(C)(C)CCCC12C (centres undefined) | 1 | 157 | -2.7 | i | 113 | -11 | 40
CCOc1ccc(OCC)c(NC(=O)CN(C)S(=O)(=O)c2cccc3nsnc23)c1 | 1 | 99 | -4.3 | i | . | -7 | .
O=S(=O)(Nc1ccc(F)cc1)N1CCCCCC1 | 0.92 | 98 | -5.3 | i | 182 | -1 | -21
CC(=O)Nc1ccc(S(=O)(=O)NCCNc2ccccc2[N+](=O)[O-])cc1 | 0.92 | 174 | . | i | 87 | -4 | -8
COc1cc2cc(C)nc(Cc3cccc4ccccc34)c2cc1OC | 1.1 | 101 | -1.2 | i | . | 1 | .
Cc1ccc(NC(=S)NCCN(C2CCCCC2)C2CCCC2)cc1C | 0.8 | 93 | . | i | . | -2 | .
CCOc1ccc2c(=O)c(Oc3ccccc3OCC)coc2c1 | 0.98 | 78 | -2.1 | i | 40 | 8 | -19
NS(=O)(=O)c1ccc(N/N=C/c2cn(-c3ccccc3)nc2-c2cccs2)cc1 | 0.85 | 96 | -1.9 | i | . | 3 | .
COc1ccccc1NC(=O)CCN1C(=O)C2CC=C(Cl)CC2C1=O (centres undefined) | 1.1 | 103 | -0.6 | i | 130 | -5 | -36
COc1ccccc1-c1nc(=S)c(C(C)=O)c(C)[nH]1 | 1.1 | 94 | . | i | . | . | .
CC(O)C(=O)N/N=C/c1cccc2ccccc12 (centres undefined) | 0.98 | 99 | 0.5 | i | 17 | -11 | 21
Cc1cc(-c2csc(NC(=O)c3ccc(=O)[nH]c3)n2)c(C)n1Cc1ccco1 | 1.2 | 109 | . | i | . | . | .
COc1cccc(C2C(C(=O)c3cc4ccccc4o3)=C(O)C(=O)N2c2cc(C)on2)c1OC (centres undefined) | . | 99 | -1.2 | . | 138 | -10 | 15
OCC1(Cc2ccccc2C(F)(F)F)CCN(Cc2ccccc2)CC1 | 0.98 | 105 | . | i | . | 9 | .
Cc1ccc(Nc2nc(CSc3nnc(-c4ccccc4)n3C)cs2)cc1 | 1 | 93 | -0.4 | i | 61 | -12 | -66
Cn1c(=O)n(CCOc2ccc([N+](=O)[O-])cc2)c2ccccc21 | 1 | 110 | . | i | . | . | .
COc1ccccc1C(=O)NC(CCSC)C(=O)OCC(=O)c1ccc[nH]1 (centres undefined) | 1 | 103 | 0.1 | i | . | 3 | .
CC(=O)N1CCN(c2nc(-c3ccco3)c3c(c2C#N)CC(C)(C)SC3)CC1 | 1.2 | 93 | 3.0 | i | 170 | -5 | -14
Cc1sc2ncnc(N[C@@H](Cc3c[nH]c4ccccc34)C(=O)O)c2c1C | 1.1 | 85 | -1.2 | i | . | -4 | .
COC(=O)c1ccc(N=Nc2ccccc2)cc1 | 0.93 | 110 | . | i | . | 3 | .
Nc1ccc(C(=O)OCC(=O)c2cccc([N+](=O)[O-])c2)cc1 | 1.1 | 101 | . | i | . | 4 | .
COc1ccc(-n2c(-c3ccco3)nc3c(cnn3-c3ccccc3C)c2=O)cc1 | 1.1 | 101 | . | i | . | . | .
CSc1nnc(-c2cc3c(-c4ccccc4)nn(C)c3s2)n1C | 0.88 | 100 | -1.8 | i | 60 | -2 | 17
CCCOc1ccc(S(=O)(=O)N2CCOCC2)cc1[N+](=O)[O-] | 1 | 101 | . | i | 95 | -4 | -25
Clc1cccc(OCc2nc(-c3ccncc3)n[nH]2)c1 | 0.93 | 105 | . | i | 113 | 8 | 40
